MLL AF4-AF9 inh – inhibitors of AF4 peptide binding to AF9, primary screen, biochemical, AlphaScreen, biotin-AF4 peptide, FLAG-AF9, single point; AID 651704, 2012; 0.47% of 350,000 active; Protein AF-9 (Homo sapiens), P42568; inhibition, % at 10 µM;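 active means every replicate reaching a set inhibition limit, whatever the replicate mean, cut at about 25% in these data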;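 further: 0% = plate neutral control median and 100% = total signal loss; the record names both 10 and 1 µM as test concentration; the first replicate is given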
Target sequence (P42568 whole entry, looked up): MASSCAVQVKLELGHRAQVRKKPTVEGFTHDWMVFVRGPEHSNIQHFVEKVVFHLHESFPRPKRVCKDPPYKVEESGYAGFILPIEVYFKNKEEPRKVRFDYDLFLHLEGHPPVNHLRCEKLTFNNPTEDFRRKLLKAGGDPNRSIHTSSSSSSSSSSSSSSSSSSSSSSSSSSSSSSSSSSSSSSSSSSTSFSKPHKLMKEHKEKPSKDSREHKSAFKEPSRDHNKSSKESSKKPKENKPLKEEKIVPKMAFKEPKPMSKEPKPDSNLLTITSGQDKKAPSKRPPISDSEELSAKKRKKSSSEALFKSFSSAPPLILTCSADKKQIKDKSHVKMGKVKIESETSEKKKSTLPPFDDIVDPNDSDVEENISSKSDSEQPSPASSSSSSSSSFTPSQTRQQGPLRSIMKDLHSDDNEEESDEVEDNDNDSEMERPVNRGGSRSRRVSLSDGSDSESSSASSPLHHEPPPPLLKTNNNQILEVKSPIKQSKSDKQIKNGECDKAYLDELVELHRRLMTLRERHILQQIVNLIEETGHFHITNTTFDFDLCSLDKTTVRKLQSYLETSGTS
Ecoli rRNA inh – reduced GFP signal of wild-type E. coli, primary screen, bacterial rRNA inhibitor project, GFP/RFP fluorescence, OD600, single point | 1.6% of 350,000 active | GFP signal change (wild-type ribosome), % (test concentration not listed) | E. coli WT GFP vs humanized-ribosome RFP mutants, 24 h; stronger effect = lower value; DMSO median 0, no signal -100 | AID 720706, 2013;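 active means significant combined selectivity score with lowered wild-type GFP, culture density cut under 30%, mutant RFP and density less affected; inactive means any of these conditions unmet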; further: one replicate is shown; some compounds called inactive have numbers as strong as hits
FGF22 binding – binders of human FGF22 protein, primary screen, FGF22 synaptogenesis inhibitor project, biophysical, thermal shift, single point; Fibroblast growth factor 22 (Homo sapiens), Q9HCT0; recombinant FGF22 thermal shift, SYPRO orange fluorescence; percent of sucrose octasulfate shift, DMSO zero; calls only at 9.99 µM; 1.5% of 340,000 active; AID 651658, 2012;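 active means melting point raised past a set limit in the mean and every replicate; three in four hits are not shown here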
Target sequence (Q9HCT0 whole entry, looked up): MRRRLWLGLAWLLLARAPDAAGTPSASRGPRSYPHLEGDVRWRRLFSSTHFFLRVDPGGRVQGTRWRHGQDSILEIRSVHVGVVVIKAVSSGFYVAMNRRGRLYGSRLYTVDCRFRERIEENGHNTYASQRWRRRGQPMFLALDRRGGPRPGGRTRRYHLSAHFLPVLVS
Ecoli rRNA inh OD600 – second read-out of Ecoli rRNA inh, no call of its own (marks repeat the call); OD600 change, %; measured here: OD600 growth;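 optical density of the mix in the first replicate; 0 = DMSO median and -100 = no signal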
Ecoli rRNA inh RFP – second read-out of Ecoli rRNA inh, no call of its own (marks repeat the call); RFP signal change, %; measured here: RFP humanized mutant strains;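 first replicate; 0 = DMSO median and -100 = no signal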
An asterisk follows results filed as active; i = inactive; . = not tested or not shown; + = active, no number; & = joins results of further samples. A portion of the library. The share of hits here may be higher or lower than overall.

Molecule | MLL AF4-AF9 inh | Ecoli rRNA inh RFP | Ecoli rRNA inh OD600 | FGF22 binding | Ecoli rRNA inh
Cc1nc(N)nc(N)c1-c1ccc([N+](=O)[O-])cc1 | -1.4 | -5.5 | 9 | i | 8
O=C(NCc1ccccc1)[C@H]1N[C@H]2c3ccc(-c4ccccc4)c(=O)n3C[C@H]2[C@@H]1CO | 3.4 | 2.2 | 1 | i | -4
O=C(C[C@H]1C[C@H]2c3cc(NS(=O)(=O)c4ccc(F)cc4)ccc3O[C@H]2[C@H](CO)O1)NCCN1CCCCC1 | 5.5 | -1.1 | -7 | i | 0
CC(=O)N(C)C[C@H]1Oc2cc(C#C[C@@H](C)O)ccc2S(=O)(=O)N([C@H](C)CO)C[C@@H]1C | -0.4 | 0.6 | -3 | i | 4
CCNC(=O)C[C@@H]1CC[C@@H](NS(=O)(=O)c2ccc(C)cc2)[C@@H](CO)O1 | -0.3 | -2.2 | 0 | i | 0
CCCN(C)C[C@H]1OCCCC[C@@H](C)Oc2ccc(NC(=O)Nc3ccc(F)cc3)cc2C(=O)N([C@H](C)CO)C[C@@H]1C | -0.4 | 0.7 | 9 | i | 2
C[C@@H]1CN([C@@H](C)CO)S(=O)(=O)c2ccc(C#CC3CC3)cc2O[C@@H]1CN(C)C(=O)c1cccc(F)c1 | 1.5 | 6.9 | -30 | i | -12
C[C@H](CO)N1C[C@H](C)[C@@H](CN(C)C(=O)c2ccncc2)OCCCC[C@H](C)Oc2ccc(NC(=O)Cc3ccccc3)cc2C1=O | 0.3 | -1.7 | 0 | i | -2
CCOC1=C2CN(S(=O)(=O)c3ccc(C)cc3)[C@H](c3ccc(CC)cc3)C[C@@H]2N(S(=O)(=O)c2ccc(C)cc2)[C@H](c2ccccc2)C1 | -1.6 | 4.6 | 13 | . | 7
CO[C@@H]1CN(C)C(=O)c2ccc(NC(=O)c3cnccn3)cc2OC[C@H](C)N(C(=O)C2CC2)C[C@H]1C | -1.1 | 0.3 | -1 | i | 2

Remaining list, next part:
Molecule | MLL AF4-AF9 inh | Ecoli rRNA inh RFP | Ecoli rRNA inh OD600 | FGF22 binding | Ecoli rRNA inh
CC(O)(C(=O)c1ccccc1)c1ccccc1 (centres undefined) | 13 | -2.3 | 14 | i | 2
C[C@@H]1CN([C@H](C)CO)C(=O)c2cc(Br)cnc2O[C@@H]1CN(C)Cc1cccc(F)c1 | -0.3 | 1.0 | -3 | i | 5
O=S1(=O)CC(N2CCN(CCO)CC2)CN1C1CCCC1 (centres undefined) | 0.4 | 6.2 | 12 | i | 5
COC(=O)[C@@H]1[C@@H](CO)[C@@H]2Cn3c(ccc(-c4ccccc4)c3=O)[C@@H]2N1C(=O)C1CC1 | 1.3 | -4.5 | -9 | i | 0
CO[C@@H]1CN(C)C(=O)c2ccc(NS(=O)(=O)c3cccc(F)c3)cc2OC[C@H](C)N(Cc2cc(F)ccc2F)C[C@@H]1C | -2.1 | 5.0 | -13 | i | -5
Cc1ccc(S(=O)(=O)N(C)C[C@@H]2Oc3cc(C4=CCCC4)ccc3S(=O)(=O)N([C@H](C)CO)C[C@@H]2C)cc1 | 0.1 | -0.7 | 7 | i | 0
O=C(Cc1ccccc1)N1CC2(C1)[C@@H](c1ccccc1)[C@@H](CO)N2C(=O)Cc1ccccc1 | -0.4 | 0.2 | 5 | i | 0
CC=Cc1ccc2n(c1=O)C[C@H]1[C@H](CO)[C@@H](C(=O)NCCC)N(C(=O)CC3CC3)[C@@H]21 (mixture of isomers) | -2.1 | -2.8 | 2 | i | 2
CCCCC(=O)N(C)c1c(CC)nc2c(OCCOc3ccc(F)cc3)cccn12 | 0.4 | 4.1 | -33 | i | -12
Cc1ccc(S(=O)(=O)N(C)C[C@@H]2Oc3c(NC(=O)c4nc5ccccc5s4)cccc3C(=O)N([C@@H](C)CO)C[C@H]2C)cc1 | -1.6 | -4.6 | 7 | i | 2

Next section
Molecule | MLL AF4-AF9 inh | Ecoli rRNA inh RFP | Ecoli rRNA inh OD600 | FGF22 binding | Ecoli rRNA inh
C[C@@H]1CCCCO[C@@H](CN(C)Cc2ccncc2)[C@H](C)CN([C@H](C)CO)C(=O)c2cc(NS(=O)(=O)c3ccc(F)cc3)ccc2O1 | 4.2 | -0.1 | -9 | i | -2
CCOC(=O)Cn1c(C(F)(F)F)nc2nc(Cl)c(Cl)nc21 | 4.7 | 18 | -2 | i | 12
COc1ccc(S(=O)(=O)N[C@@H]2CC[C@H](CCNC(=O)Cc3ccccn3)O[C@H]2CO)cc1 | 0.5 | 0.7 | -4 | i | 3
CCNC(=O)C[C@H]1CC[C@H]2[C@@H](COC[C@@H](O)CN2C(=O)CC)O1 | -1.2 | 0.3 | 6 | i | -2
C[C@@H]1CNC(=O)c2c(C(=O)N[C@H](C)c3ccccc3)ncn21 | 0.7 | 2.1 | 6 | i | 18
C[C@@H]1CN([C@@H](C)CO)C(=O)c2cc(NC(=O)C3CCCCC3)ccc2O[C@H]1CN(C)Cc1ccc(Cl)c(Cl)c1 | 1.7 | 5.4 | -2 | i | 3
CCC(=O)N1CC[C@@H]2[C@@H](CO)N(C)c3ccc(-c4cccc(OC)c4)cc3[C@@H]21 | 5.3 | 2.5 | 5 | i | 9
CCOc1ccccc1C(=O)NCCN1CCC(n2c(=O)[nH]c3ccccc32)CC1 | -0.2 | 2.9 | 7 | i | 15
O=C(NCc1ccccc1)C1C(c2ccc3c(c2)OCO3)=Nc2ccccc2N1C(=O)c1ccccc1 (centres undefined) | 1.6 | -7.7 | -2 | i | -4
C[C@@H]1CN([C@@H](C)CO)C(=O)c2cccc(NC(=O)C3CC3)c2O[C@@H]1CN(C)Cc1ccncc1 | 0.4 | -2.2 | 6 | i | 3

Following part
Molecule | MLL AF4-AF9 inh | Ecoli rRNA inh RFP | Ecoli rRNA inh OD600 | FGF22 binding | Ecoli rRNA inh
COc1ccc(S(=O)(=O)Nc2ccc3c(c2)CC(=O)N([C@H](C)CO)C[C@@H](C)[C@@H](CN(C)S(=O)(=O)c2ccc(C)cc2)O3)cc1 | 2.0 | 3.2 | -12 | i | 0
CC(C)NC(=O)Nc1ccc2c(c1)CC(=O)N([C@H](C)CO)C[C@H](C)[C@@H](CN(C)Cc1ccc(Cl)c(Cl)c1)O2 | -12 | 10 | -39 | i | -3
COC(=O)C[C@@H]1CC[C@H](NS(=O)(=O)c2ccccc2F)[C@@H](CO)O1 | 0.1&0.4 | 1.5&-0.1 | -3&6 | i | 0&12
Cc1cccc(N=O)n1 | -5.6 | -6.7 | 15 | i | 5
O=C(C[C@H]1C[C@@H]2c3cc(NC(=O)Nc4ccccc4F)ccc3O[C@@H]2[C@@H](CO)O1)NCc1ccc(Oc2ccccc2)cc1 | -2.0 | 1.5 | -10 | i | -2
O=C(Nc1cccc(Cl)c1)N[C@@H]1CC[C@@H](CCNC(=O)C2CCCC2)O[C@@H]1CO | 2.0 | 1.8 | -8 | i | -2
CC(=O)OC[C@@H]1CN(Cc2cccc(C(F)(F)F)c2)C[C@H](n2cnc3c(NCc4ccco4)ncnc32)O1 | 5.6 | -3.0 | 6 | i | -1
COc1cccc(-c2oc3c(c2C#CCCO)C(O)CCC3)c1 (centres undefined) | 0.1 | -0.5 | -2 | i | 0
C[C@H](CO)N1C[C@H](C)[C@H](CN(C)Cc2ccncc2)OCCCC[C@H](C)Oc2ccc(NC(=O)NC3CCCCC3)cc2C1=O | 5.0 | -0.9 | 1 | i | -5
CO[C@H]1CN(C)C(=O)c2ccc(NS(C)(=O)=O)cc2OC[C@@H](C)N(CC2CC2)C[C@H]1C | -0.9 | 0.0 | 8 | i | -2

Next part:
Molecule | MLL AF4-AF9 inh | Ecoli rRNA inh RFP | Ecoli rRNA inh OD600 | FGF22 binding | Ecoli rRNA inh
C[C@@H]1CCCCO[C@@H](CN(C)Cc2ccc(C(=O)O)cc2)[C@H](C)CN([C@@H](C)CO)C(=O)c2cc(NC(=O)CCCN(C)C)ccc2O1 | 0.4 | -0.3 | 4 | i | 3
O=C(C[C@H]1C[C@@H]2c3cc(NC(=O)NC4CCCC4)ccc3O[C@@H]2[C@@H](CO)O1)NCc1ccc(-c2ccccc2)cc1 | -0.9 | 19 | 30 | i | -8
COc1ccc2c3c([nH]c2c1)[C@@H](CO)N(Cc1nccs1)CC31CN(Cc2cccnc2)C1 | 3.5 | 5.9 | 19 | i | 1
COCOCCn1cc(CN2CCS(=O)(=O)N(Cc3ccc(-c4ccncc4)cc3)C(CC(C)C)C2=O)nn1 (centres undefined) | 0.0 | 1.6 | -7 | i | -6
C[C@H](CO)N1C[C@H](C)[C@@H](CN(C)Cc2ccc(Oc3ccccc3)cc2)Oc2ccc(NS(=O)(=O)c3cccs3)cc2CC1=O | 5.0 | 5.7 | -4 | i | 0
C[C@H](CO)N1C[C@H](C)[C@H](CN(C)C(=O)NC2CCCC2)Oc2ncc(/C=C/c3ccccc3)cc2C1=O | 1.5 | 1.1 | 2 | i | -1
CC(C)CC#Cc1ccc2c(c1)O[C@H](CN(C)C(=O)Nc1ccccc1F)[C@@H](C)CN([C@H](C)CO)S2(=O)=O | 2.4 | 8.4 | -1 | i | -2
O=C(NCCN1CCC(n2c(=O)[nH]c3ccccc32)CC1)c1cc(F)cc(F)c1 | -0.7 | -9.2 | -52 | i | -32
CCNC(=O)[C@@H]1[C@@H](CO)[C@@H]2Cn3c(ccc(-c4ccc(OC)cc4)c3=O)[C@@H]2N1Cc1nccs1 | -1.4 | -1.6 | 1 | i | 4
CCNC(=O)c1cc2c(c(-c3cccc(-c4cccc(OC)c4)c3)n1)[C@@H](CCO)N([S@](=O)C(C)(C)C)C2 | 2.8 | 25 | 10 | i | -9

(list continues)
Molecule | MLL AF4-AF9 inh | Ecoli rRNA inh RFP | Ecoli rRNA inh OD600 | FGF22 binding | Ecoli rRNA inh
COc1ccc(S(=O)(=O)N(C)C[C@H]2Oc3ccc(NC(=O)Cc4ccccc4)cc3CC(=O)N([C@H](C)CO)C[C@H]2C)cc1 | -0.3 | -1.3 | -2 | i | -1
COc1ccc2c3c([nH]c2c1)[C@@H](CO)N(Cc1cccnc1)CC31CCN(C(=O)c2cccnc2)CC1 | -0.9 | -3.4 | 16 | i | 6
CSc1ncnc2c1ncn2CCCN1CCN(Cc2c(C)cc(C)cc2C)CC1 | 9.4 | 1.4 | -8 | i | -8
COc1ccc(S(=O)(=O)Nc2ccc3c(c2)C(=O)N([C@H](C)CO)C[C@H](C)[C@@H](CN(C)S(=O)(=O)c2ccc(Cl)cc2)OCCCC[C@@H](C)O3)cc1 | -4.0 | -2.8 | 5 | i | -1
CO[C@@H]1CN(C)C(=O)c2ccc(NC(=O)C3CCC3)cc2OC[C@@H](C)NC[C@H]1C | -0.4 | 0.8 | 1 | i | 0
COc1ccc(S(=O)(=O)Nc2ccc3c(c2)C(=O)N([C@@H](C)CO)C[C@@H](C)[C@@H](CN(C)C)OCCCC[C@@H](C)O3)cc1 | -1.4 | -1.5 | -1 | + | 0
COc1ccc(-c2csc(C(O)c3ccc(F)c(F)c3)n2)cc1 (centres undefined) | -2.7 | -24 | -78 | i | -65
C[C@H](CO)N1C[C@H](C)[C@@H](CN(C)C(=O)Cc2ccccc2)OCCCC[C@H](C)Oc2ccc(NC(=O)Nc3ccc4c(c3)OCO4)cc2C1=O | 0.3 | -1.0 | 0 | i | -2
COc1ccc(S(=O)(=O)Nc2ccc3c(c2)C(=O)N([C@@H](C)CO)C[C@@H](C)[C@@H](CN(C)Cc2ccc(Cl)c(Cl)c2)O3)cc1 | 2.1 | 3.9 | -23 | i | -5
COc1ccc(NC(=O)N(C)C[C@H]2Oc3ccc(NC(=O)CCCN(C)C)cc3C(=O)N([C@@H](C)CO)C[C@H]2C)cc1 | 0.1 | -1.3 | 9 | i | 4
CC(=O)N(C)C[C@H]1Oc2ncc(-c3cncnc3)cc2C(=O)N([C@H](C)CO)C[C@H]1C | -4.8 | -4.9 | 13 | i | 6
CCC(c1nnnn1-c1ccc2c(c1)OCCO2)N1CCN(CCN2CCOCC2)CC1 (centres undefined) | -2.3 | -1.4 | 24 | i | 29
C[C@@H]1CN([C@@H](C)CO)C(=O)CCCn2nncc2CO[C@H]1CN(C)C(=O)Nc1ccccc1C(F)(F)F | -1.6&0.7 | -1.4&-1.2 | -10&-2 | i | 0&1

Single records (already shown).
`COc1ccc(S(=O)(=O)Nc2ccc3c(c2)C(=O)N([C@H](C)CO)C[C@H](C)[C@@H](CN(C)S(=O)(=O)c2ccc(Cl)cc2)OCCCC[C@@H](C)O3)cc1` is listed as MLL AF4-AF9 inh = -4.0; Ecoli rRNA inh RFP = -2.8; Ecoli rRNA inh OD600 = 5; FGF22 binding = i; Ecoli rRNA inh = -1
`CO[C@@H]1CN(C)C(=O)c2ccc(NC(=O)C3CCC3)cc2OC[C@@H](C)NC[C@H]1C` is listed as MLL AF4-AF9 inh = -0.4; Ecoli rRNA inh RFP = 0.8; Ecoli rRNA inh OD600 = 1; FGF22 binding = i; Ecoli rRNA inh = 0
